From PubChem
Cruzain Triton = inhibitors of Trypanosoma cruzi cruzain with detergent; P25779; purified cruzain, Z-FR-AMC fluorescence, 0.01% Triton; Potency, µM, for the others: max response, negative = inhibition, usual class: inhibitors; 200,000 tested, 0.43% active;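 further: plate controls were neutral wells for no effect and buffer without enzyme for full effect; nearly all actives have a fitted effect of over 40% in size; top concentration of the series not given in the record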
Target sequence (P25779 123-467 limits assumed): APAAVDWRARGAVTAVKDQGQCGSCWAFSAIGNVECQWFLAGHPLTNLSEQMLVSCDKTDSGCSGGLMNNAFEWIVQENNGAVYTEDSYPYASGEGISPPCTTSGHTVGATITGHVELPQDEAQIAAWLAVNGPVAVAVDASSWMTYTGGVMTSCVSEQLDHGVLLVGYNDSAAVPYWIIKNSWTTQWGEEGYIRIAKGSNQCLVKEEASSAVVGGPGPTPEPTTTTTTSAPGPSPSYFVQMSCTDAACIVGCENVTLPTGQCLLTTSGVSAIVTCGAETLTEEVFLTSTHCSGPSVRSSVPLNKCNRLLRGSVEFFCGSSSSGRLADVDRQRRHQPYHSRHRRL
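15 min RT preincubation of 1.5 nM cruzain with compound, then 2 uM Z-FR-AMC added; kinetic AMC fluorescence, 60 s delta. Triton X-100 0.01%, pH 5.5.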
Cruzain inh noDet = cruzain (T. cruzi) inhibition without detergent. P25779. purified cruzain, Z-FR-AMC fluorescence, no detergent. Potency, µM, without a hit: max response, negative = inhibition, actives largely listed as inhibitors. 200,000 tested, 2.3% active;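 further: plate controls were enzyme without inhibitor for no effect and buffer without enzyme for full effect; nearly all actives have a fitted effect of over 40% in size; top concentration of the series not given in the record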
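Purified cruzain at 1.5 nM, pre-incubated 15 min with compound at room temperature in 100 mM sodium acetate pH 5.5, 5 mM DTT, 0.00005% Triton X-100. Reaction started with 2 uM Z-FR-AMC; AMC fluorescence increase over 60 s gives rate.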
NS1 function inh = influenza NS1 inhibition | S. cerevisiae slowed by influenza A NS1, growth recovery by OD600 | Potency, µM (series often up to 46.1 µM), for the others: at the highest dose activity, positive = more growth | 270,000 tested, 0.4% active; active means well fitted rising curve with a large enough effect; inconclusive means small, poorly fitted or top-dose-only effect; inactive means no such curve, though single readings can be large or run the other way; further: nearly all actives have a fitted effect of over 50% in size
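A cell-based growth assay was used: compounds that relieve NS1-induced slow growth of budding yeast raise OD600. Assay medium was yeast nitrogen base with ammonium sulphate and -URA supplement, pH 6.0, with 2% galactose.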
MARV entry inh = Marburg virus entry inhibition | Marburg virus pseudotyped entry inhibition, cell reporter; control for the full effect not named in the record; about a third of the inactives were read at about 46 µM | Potency, µM (titrated, usually from 37.8 µM), for the others: at the highest dose activity change, negative = inhibition, actives largely listed as inhibitors | 300,000 tested, 1.8% active; active = well fitted inhibition curve with a large enough effect; inconclusive = small, poorly fitted or top-dose-only effect, or effect the other way; inactive = flat fitted curve, though single readings scatter; tested in HEK293 cells; about a fifth of its hits are not listed in these tables; further: on the % scale 0 is the no-effect control and ±100 the full control effect; luciferase read-out
RE007 growth inh = less growth of the S. pombe RE007 Vpr strain | Potency, µM (series often up to 92.2 µM), for the others: at the top dose activity change, negative = less growth | S. pombe RE007 Vpr strain, BacTiter-Glo ATP luminescence, 24 h; control for the full effect not named in the record | 360,000 tested, 0.21% active; active = well fitted falling curve with a large enough effect; inconclusive = small, poorly fitted or top-dose-only effect; inactive = no such curve, though single readings can be large or run the other way;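 further: on the % scale 0 is the no-effect control and ±100 the full control effect; nearly all actives have a fitted effect of over 50% in size; the assay follows cell death caused by Vpr and the record does not say whether a fall means rescue or toxicity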
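Fission yeast strain RE007, carrying one chromosomally integrated HIV-1 vpr copy, was seeded at OD 0.01 in PMG+AL medium with 23 nL pinned compound. After 24 h at 30 °C and 99% humidity, viability was read by BacTiter-Glo luminescence.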
2A StopGo = FMDV 2A StopGo reporter, luciferase signal | human cells with a luciferase reporter of 2A StopGo recoding; control for the full effect not named in the record | Potency, µM (top dose mostly 57.9 µM), without a hit: at the highest dose signal change, negative = less light | 410,000 tested, 1.2% active | AID 1159524; active = well fitted falling curve with a large enough effect; inconclusive = small, poorly fitted or top-dose-only effect; inactive = no such curve, though single readings can be large or run the other way; tested in HEK293T cells; further: on the % scale 0 is the no-effect control and ±100 the full control effect; nearly all actives have a fitted effect of over 45% in size; luciferase light after 4 h
SARS PLpro yeast = SARS-CoV PLP inhibition in yeast; S. cerevisiae expressing SARS-CoV PLpro, growth rescue; control for the full effect not named in the record; Potency, µM (titrated, usually from 32.9 µM), for the others: top-dose activity, positive = growth rescue; 330,000 tested, 0.19% active; active means well fitted rising curve with a large enough effect; inconclusive means small, poorly fitted or top-dose-only effect; inactive means no such curve, though single readings can be large or run the other way; further: 0% is about no effect; nearly all actives have a fitted effect of over 55% in size; growth read by luminescence after 48 h
LASV entry inh = Lassa virus entry inhibition; AID 540256; Potency, µM (highest dose often 37.9 µM), without a hit: at the top dose activity change, negative = inhibition, hits mostly inhibitors; 300,000 tested, 1.2% active; Lassa virus pseudotype entry inhibition, cell reporter; control for the full effect not named in the record; active means well fitted inhibition curve with a large enough effect; inconclusive means small, poorly fitted or top-dose-only effect, or effect the other way; inactive means flat fitted curve, though single readings scatter; tested in HEK293 cells; further: on the % scale 0 is the no-effect control and ±100 the full control effect; nearly all actives have a fitted effect of over 50% in size; luciferase read-out
Starred values were filed as active, the others as inactive; ? = inconclusive; . = no result given; [ ] = remark or other dose. Unless noted, the call rests on the fitted dose curve; in most records, active means well fitted curve in the direction sought with a large enough effect; inconclusive means small, poorly fitted or top-dose-only effect, or another doubt; inactive means no such curve, though single readings can be large; an effect the other way counts as inactive or inconclusive. Potency means the concentration at half of the fitted maximal effect.

SMILES	Cruzain Triton	Cruzain inh noDet	NS1 function inh	MARV entry inh	RE007 growth inh	2A StopGo	SARS PLpro yeast	LASV entry inh
Nc1nc2ccccc2n1CCOc1ccccc1Cl	-15%	-18%	-5%	11µM*	3%	?	-3%	-10%
O=C(CCN1C(=O)C2CCCCC2C1=O)Nc1nc(-c2ccc(F)c(F)c2)cs1 (stereo not drawn)	.	.	-12%	10%[46.1 µM]	10%	?	3%	?
Cc1ccc(-c2oc3ccccc3c(=O)c2OCC(=O)O)cc1	.	.	.	-6%	107%	-7%	0%	-1%[46.1 µM]
Cn1c(NCCCO)nc2c1c(=O)n(Cc1cccc(F)c1)c(=O)n2C	-2.0%	14%	.	-6%[46.1 µM]	.	-17%	.	-3%[46.1 µM]
CCCCCNC(=O)C(C)Sc1ccc(Cl)cc1 (stereo not drawn)	4.1%	-3%	-51%	14%	-3%	0%	8%	7%
CCN(CC)C(=O)/C(NC(=O)c1ccccc1)=C(/Sc1ncccn1)c1ccccc1	-9.6%	-2%	-4%	-13%	11%	-24%	-13%	-11%
CCCCN(C(=O)c1cc(=O)[nH]c2ccccc12)c1c(N)n(CCC)c(=O)[nH]c1=O	.	.	0%	1%[46.1 µM]	-13%	-9%	0%	19%
Cc1ccc(-c2cccc(NC(=O)C3C(C(=O)O)[C@@H]4C=C[C@H]3C4)c2)o1 (stereo partly drawn)	-2.7%	-10%	21%	3%	-19%	-6%	-1%	-13%
COc1cc(C(=S)N2CCOCC2)ccc1OC(=O)Cc1ccc(F)cc1	-6.3%	16%	-11%	-6%	15%	-7%	10%	-7%
CC1CCN(CC(=O)c2cccc(C(F)(F)F)c2)CC1	.	.	-1%	.	-7%	2%	-3%	.
Cc1ccc(CC(=O)NCC(O)c2ccccc2)cc1 (stereo not drawn)	.	.	6%	5%	9%	22%	1%	13%
Cc1cc2c(=O)c(C(=O)c3ccncc3)cn(CC(=O)Nc3cccc(C)c3C)c2cc1C	-1.1%	23%	.	.	.	-12%	.	-26%[46.1 µM]
CN1CC(c2ccccc2)C(c2ccc(Cl)cc2)=N1 (stereo not drawn)	-4.4%	-5%	-3%	-21%	-19%	-29%	?	-1%
Cc1nc2cc(C(=O)O)ccc2n1-c1ccc(C(C)C)cc1	-2.1%	-11%	.	-1%[46.1 µM]	.	66%[activator]	.	0%[46.1 µM]
CCOC(=O)NCc1ccc(CNC(=O)OCC)cc1	-1.4%	-6%	-11%	0%	-4%	-6%	-1%	15%
COc1cccc(/C=N/n2c(C)nc3ccccc32)c1OC	-3.9%	-9%	-54%	-3%	4%	0%	-8%	3%
CC(C)COC(=O)N1CC(O)CC1C(=O)Nc1ccc2c(c1)OCO2 (stereo not drawn)	.	.	.	?	14%	-6%	-10%	17%
CCN1C(=O)N(C(C)=O)C2C1N(C(C)=O)C(=O)N2C(C)=O (stereo not drawn)	.	.	2%	?	41%	-11%	0%	0%[46.1 µM]
COc1ccccc1C(=O)Nc1onc(C)c1C#N	.	.	-4%	1%	-9%	16%	-1%	4%
COC(=O)CCc1cccc(CCC(=O)OC)c1	.	.	-12%	.	28%	-7%	2%	.
Cc1ccccc1NS(=O)(=O)c1ccc(NS(=O)(=O)c2cccs2)cc1	.	.	14%	-7%[46.1 µM]	-14%	0%	3%	-5%[46.1 µM]
Cc1nc(NC(=O)c2cc3ccccc3o2)ccc1Br	.	.	-8%	11%	-9%	20%	0%	-13%
CCCCN(C(=O)CSCC(=O)Nc1ccc(OC)cc1)c1c(N)n(Cc2ccccc2)c(=O)[nH]c1=O	.	.	.	3%	-2%	-20%	-1%	-13%
C#CCOCCOCCOCCNc1nc(N2CCN(C(=O)[C@H](C)n3cc(CCCN=C(N)N)nn3)CC2)nc(N2CCN(C(=O)[C@H](CCCCN)n3cc(CCCC)nn3)CC2)n1	-15%	0%	-13%	-10%	.	.	22%	3%
COc1cc2c(cc1OC)n(CC(=O)c1cc(C)ccc1C)c(=O)n1nc(CCn3nc(C)cc3C)nc21	1.3%	-1%	.	.	.	0%	.	-7%[46.1 µM]
CCCc1c(C)c2ccc(OCC(C)=O)cc2oc1=O	-11%	8%	-102%	8%	-3%	14%	-7%	8%
Cc1cc(C)cc(N(CC(=O)NC2CCCCC2)C(=O)c2ccc(C)s2)c1	-1.2%	-5%	16%	?	3%	.	-4%	-1%
Cc1[nH]n(-c2ccccc2)c(=O)c1N=Nc1cccc(Cl)c1	.	.	11%	.	-11%	72%[activator]	3%	.
COc1ccc(OC)c(NC(=O)c2nnn(Cc3ccccc3C)c2N)c1	6.2%	14%	-37%	?	18%	19%	6%	-7%
CCN1CCN(S(=O)(=O)c2ccc(Cl)nc2)CC1	4.3%	-2%	2%	28%	2%	0%	0%	15%
CC(=O)N(C)c1ccc(OCC(O)Cn2c3ccc(Cl)cc3c3cc(Cl)ccc32)cc1 (stereo not drawn)	-5.8%	?	2%	11µM*	?	?	-2%	?
NC(=O)NC(Cc1ccccc1)c1ccccc1 (stereo not drawn)	0.6%	-7%	-1%	?	12%	8%	10%	1%
O=C(COc1ccccc1)N(Cc1cccnc1)c1nc2ccc(Cl)cc2s1	-0.1%	-6%	.	.	.	24%	.	22%[46.1 µM]
COc1ccc(OC)c(NC(=O)N2CCc3ccccc3C2)c1	.	.	-16%	-6%[46.1 µM]	-2%	9%	5%	12%[46.1 µM]
COc1ccccc1OCCNC(=O)c1cccc(S(=O)(=O)N2CCN(C)CC2)c1	.	.	5%	?	7%	8%	-1%	1%
Cc1nc(-c2nc(-c3c(C(=O)NNC(=O)c4ccc(Cl)cc4)noc3C)cs2)cs1	.	.	-31%	?	-5%	-4%	-3%	-1%
O=C(NCC(c1ccco1)N1CCCC1)c1cccc(NS(=O)(=O)c2ccccc2)c1 (stereo not drawn)	.	.	.	-30%	-12%	-6%	.	6%
CCn1nc(C)c(NC(=O)CCSc2nc(-c3ccco3)cc(C(F)(F)F)n2)c1C	-2.4%	?	-29%	-2%	-21%	?	1%	-10%
O=C(c1cn2ccccc2n1)N1CCc2c([nH]c3ccccc23)C1c1ccccn1 (stereo not drawn)	.	.	7%	?	-10%	-4%	-2%	?
O=C(CSc1nnc(-c2ccccc2O)n1-c1ccccc1)Nc1cccc(C(=O)O)c1	.	.	3%	?	-6%	1%	2%	9%[46.1 µM]

Results in 2A StopGo (2 entries from above):
compound | 2A StopGo
COC(=O)CCc1cccc(CCC(=O)OC)c1 | -7%
Cc1ccccc1NS(=O)(=O)c1ccc(NS(=O)(=O)c2cccs2)cc1 | 0%

Next part.
SMILES	Cruzain Triton	Cruzain inh noDet	NS1 function inh	MARV entry inh	RE007 growth inh	2A StopGo	SARS PLpro yeast	LASV entry inh
CCCC(C(=O)Nc1ccc(S(=O)(=O)N2CCCC2)cc1)c1ccccc1 (stereo not drawn)	.	.	.	?	-3%	-24%	9%	?
COc1ccc(C(=O)CSc2nnc(-c3cc(C)cc(C)c3)o2)cc1	-0.4%	?	-5%	-17%	9%	.	2%	-22%
CC(=O)Nc1ccc2c(c1)nc(CCNC(=O)c1ccccc1)n2C	-3.9%	-13%	2%	17%	-13%	6%	18%	0%
COc1ccc(-c2noc(COc3cc(C)ccc3C)n2)cc1OC	-9.3%	?	.	0%[46.1 µM]	.	-18%	.	8%[46.1 µM]
Cc1noc(C)c1COC(=O)CNC(=O)c1ccc(Cl)cc1	.	.	.	21%[46.1 µM]	3%	-4%	1%	-7%[46.1 µM]
COc1ccc(CC(=O)Nc2ccc3nc(C)sc3c2)cc1OC	-6.7%	4%	2%	0%[46.1 µM]	-1%	-3%	-12%	8%
c1ccc(Oc2ccc(-c3ccnc4ncnn34)cc2)cc1	.	.	-31%	?	24%	-4%	0%	?
COc1ccccc1C1SCC(=O)Nc2c1c(C)nn2-c1cccc(C)c1 (stereo not drawn)	-6.5%	-16%	.	-6%[46.1 µM]	.	-10%	.	16%[46.1 µM]
N#C/C(=C\C1=C(N2CCOCC2)C(=C\c2ccc(Cl)cc2)/CC1)C(=O)Nc1ccccc1F	-8.3%	10µM*	7%	18%	9%	?	1%	3%
CCCC(=O)Nc1c(-c2ccc(OC)cc2)c(=O)c2ccccc2n1C	-1.4%	-8%	3%	16%	7%	17%	7%	0%
COc1ccc(-c2cc(C)no2)cc1S(=O)(=O)NCC1CCN(Cc2cc(C)ccc2C)CC1	.	.	-5%	.	-2%	9%	?	.
CCOC(=O)c1c(CN2CCCCC2)oc2ccc(O)cc12	-3.4%	-2%	-1%	-8%	-4%	-16%	8%	8%
CCCCn1c(/N=C/c2cc(OC)ccc2O)nc2ccccc21	-5.4%	-16%	3%	-19%	1%	3%	-2%	0%
Cc1cccc2cc(C#N)c(SCC(=O)NCC3CCCO3)nc12 (stereo not drawn)	2.4%	-16%	18%	0%	-8%	7%	0%	-10%
CC(=O)c1ccc(N=Nc2c(C)[nH]n(-c3ccccc3)c2=O)cc1	.	.	0%	.	0%	21%	4%	.
COc1ccc(C(=O)NC2CCN(C(=S)Nc3ccccc3)CC2)cc1	.	.	-3%	?	-3%	-15%	0%	21%[46.1 µM]
O=c1[nH]c(/C=C\c2cccs2)nc(O)c1[N+](=O)[O-]	.	.	.	9%[46.1 µM]	12%	-10%	0%	?
CCOc1cc([N+](=O)[O-])cc(/C=N/NC(=O)c2c(-c3ccccc3)noc2C)c1O	.	.	-6%	-27%[46.1 µM]	2%	-15%	?	3%[46.1 µM]
COc1cccc(NC(=O)CSC2=Nc3ccccc3C3=NC(CC(=O)NCc4ccc5c(c4)OCO5)C(=O)N23)c1 (stereo not drawn)	-4.5%	12%	.	.	.	-19%	.	-3%[46.1 µM]
O=C1CC(N2CC=C(c3ccccc3)CC2)C(=O)N1c1ccc(F)cc1 (stereo not drawn)	-5.8%	-15%	-41%	.	?	-13%	-35%	.
CC(C)(CO)NC(=S)NCc1ccco1	.	.	2%	8%[46.1 µM]	-3%	-16%	-1%	13%[46.1 µM]
COc1ccccc1NC(=O)c1nc(SCc2ccc(F)cc2)ncc1Cl	-0.1%	-4%	.	4%[46.1 µM]	.	-16%	.	24%[46.1 µM]
